# High-throughput results (PubChem)
# AmpC inh no det – blocks E. coli AmpC beta-lactamase in absence of detergent; P00811; AmpC nitrocefin hydrolysis, absorbance 480 nm, no detergent; potencies from a single point are estimates; Potency, µM (titrated, usually from 28.7 µM), without a hit: at the highest dose activity change, negative = inhibition; 71,000 tested, 1.8% active; AID 585; active = falling curve, for most hits resting on a single point; inconclusive = weak or doubtful change; inactive = flat or rising curve; note: % of control where 0% means no effect; about half of the hits show no inhibition at the top dose; a quarter of the inactives give rising signals
# Target sequence (P00811 whole entry, looked up): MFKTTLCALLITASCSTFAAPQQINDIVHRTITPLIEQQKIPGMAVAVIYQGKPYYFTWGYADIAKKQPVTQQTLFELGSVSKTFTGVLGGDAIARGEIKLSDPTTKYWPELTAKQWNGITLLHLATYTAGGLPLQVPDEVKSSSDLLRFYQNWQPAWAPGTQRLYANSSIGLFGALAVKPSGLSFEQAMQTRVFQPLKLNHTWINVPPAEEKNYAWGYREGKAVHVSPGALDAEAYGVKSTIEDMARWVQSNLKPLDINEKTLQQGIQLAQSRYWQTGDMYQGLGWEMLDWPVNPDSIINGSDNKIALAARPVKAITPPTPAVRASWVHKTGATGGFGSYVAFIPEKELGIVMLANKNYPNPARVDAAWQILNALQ
#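 AmpC, 20 mM phosphate pH 7.0; 15 min cpd preinc, RT; start with nitrocefin (800 uM stock); A480 kinetic read, 20 s intervals, 4 min. No-enzyme wells = negative control.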
# Numbers without * were called inactive; & = joins results of further samples; [ ] = remark or other dose. Potency is the fitted concentration of half-maximal effect.
SMILES	AmpC inh no det
c1ccc(OCCOc2ccccc2-c2nnco2)cc1	4%
COc1ccc(C(=O)N2CCN(Cc3ccccc3C)CC2)cc1OC	110%
N[C@H](C(=O)O)[C@@H]1C[C@@H]1C(=O)O	23%&1%
O=C(NCCN1CCOCC1)c1cc(-c2ccc(Cl)cc2)on1	33%
CCN1CCN(c2ncc(C(=O)N3CCCc4ccccc43)c3ccccc23)CC1	92%
COc1ccc(N2CCN(C(c3cccs3)C(C)NC(=O)c3ccco3)CC2)cc1 (centres undefined)	73%
NC(=O)CNCCC(c1ccccc1)c1ccccc1	11%
O=C(C1CCC1)N1CCc2cc(S(=O)(=O)N3CCc4ccccc4C3)ccc21	21%
CCC(C)C(NC(=O)c1ccccc1NC(=O)c1ccco1)C(=O)O (centres undefined)	-1%
Cc1ccc(-c2nc3ncccn3c2NC(=O)C2CC2)cc1	18%
O=C1C=CC(=Nc2cccc3c(N=C4C=CC(=O)O4)cccc23)O1	-12%[5.75 µM]
CCOc1cc(CNn2cnnc2)ccc1OCC(=O)NC1CCCCC1	19%
CCN(CC)CCN1C(=O)C(=O)/C(=C(/O)c2cnn(-c3ccccc3)c2C)C1c1cccnc1 (centres undefined)	0%
CCC(C)(C)n1nnnc1CN(Cc1cccs1)Cc1cc2cc(OC)ccc2[nH]c1=O	62%
O=S(=O)(NCc1ccccc1)c1cnc[nH]1	-16%
O=S(=O)(NCC(c1cccnc1)N1CCN(c2ccccc2)CC1)c1cccs1 (centres undefined)	46%
N#Cc1c[nH]n2c(=O)cc(Cc3ccccc3)nc12	-6%
Cc1[nH]n2c(=O)c3c(nc2c1-c1ccc(Cl)cc1)CCC3	3%
NCCCCCCCCCCNS(=O)(=O)c1cccc2c(Cl)cccc12	4%
Cc1[nH]n2c(=O)c3c(nc2c1-c1ccccc1)CCCC3	-14%
COc1ccc(-c2nnc(-c3ccc(Br)o3)o2)cc1OC	71%
Cc1cccc(OCc2nnc(SCC(=O)N3CCCC3)n2C)c1	16%
CCOC(=O)C1CCN(C=Nc2cc(C)on2)CC1	-10%
O=C(CSc1nnc(-c2cccs2)n1-c1ccccc1)Nc1ccccc1	3%
Cc1cccc(N2CCN(C(=O)Cn3cccc3)CC2)c1C	88%
COCCOC(=O)C1=C(C)NC(=O)NC1c1cn(-c2ccccc2)nc1-c1cccs1 (centres undefined)	66%
Cn1c(C(O)c2ccc3c(c2)OCO3)nc2ccccc21 (centres undefined)	-4%
CCOC(=O)N1CCN(S(=O)(=O)c2cccc3nsnc23)CC1	-4%
Clc1ccc(-c2nnc(N3CCCC3)nn2)cc1	10µM*
COC(=O)c1c(C(=O)OC)c2oc3ccccc3n2c1Cl	35%

# Laid out differently: entries from further up
Clc1ccc(-c2nnc(N3CCCC3)nn2)cc1
  AmpC inh no det: 10µM*
O=C(CSc1nnc(-c2cccs2)n1-c1ccccc1)Nc1ccccc1
  AmpC inh no det: 3%

# (next part)
SMILES	AmpC inh no det
CCc1nnc(NC(=O)CSc2ncc(-c3ccccc3)n2CC)s1	20%
COc1ccccc1CNCCCCCCNCCCCCCCCNCCCCCCNCc1ccccc1OC	32%
COCCn1c(SCC(=O)N2CCCC2)nnc1-c1ccoc1C	-8%
O=C(Nc1ccc(O)cc1C(=O)O)c1cccc(Br)c1	-18%
Clc1ccc(C2=Nn3c(nnc3-c3n[nH]c4c3CCC4)SC2)cc1	18%
O=C(Cn1c2c(c(-c3ccccc3)cc1=O)CCCC2)N1CCCCCC1	75%
COc1ccccc1C(=O)N1CCN(S(=O)(=O)Cc2ccccc2)CC1	26%
COC(=O)Cc1n[nH]c(=S)[nH]c1=O	-8%
O=S(=O)(O)n1ccnc1 (tested in a mixture with another compound)	-3%[5.75 µM]
CN1C(=O)CSc2ccc(NC(=O)NCCC3=CCCCC3)cc21	-13%
COc1ccc(N2CCN(S(=O)(=O)c3ccc(Br)s3)CC2)cc1	-14%
CCOc1ccc(NC2CCN(C(C)=O)CC2)cc1	-2%
COc1ccccc1CN(Cc1nc2ccccc2c(=O)[nH]1)C(=O)Nc1ccccc1	17%
Cc1ccccc1OC(C)C(=O)NC1CCCC1 (centres undefined)	13%
CC1Cc2ccccc2N1C(=O)CCS(=O)(=O)c1cccc2nonc12 (centres undefined)	-2%
CN(Cc1ccccc1)C(=O)Nc1ccccc1	-5%
O=C(O)CCc1ccc(-c2ccc(Br)cc2)o1	6%
O=c1c(-c2ccccc2)nc2cnc(N3CCOCC3)nc2n1C1CC1	17%
Clc1ccccc1C(c1ccccc1)(c1ccccc1)n1ccnc1	25%[12.8 µM]
CCCCC(CC)Cn1c2nc3ccccc3nc2c2c(=N)oc(C)nc21 (centres undefined)	13%
CSc1nc2ccc(NC(=O)C3CCCO3)cc2s1 (centres undefined)	5%
COc1cc(NC(=O)CCN2CCN(c3ccccc3F)CC2)cc(OC)c1	48%
Cn1c(=O)n(C)c2cc(C(N)=O)ccc21	5%
CC(C)N1C(=O)CCC1C(=O)NCCc1ccccc1 (centres undefined)	2%
Cc1ccc(CNn2cnnc2SCC(=O)NC(C)(C)C)cc1	27%
COc1ccc(C(=O)N2CCC[C@@]3(CCN(C(=O)Nc4ccccc4)C3)C2)cc1	15%
CNCCC=C1c2ccccc2C=Cc2ccccc21	18%[12.8 µM]
NCc1ccc(-c2nc3ccccc3o2)cc1	32%
Cc1cc(C)cc(NC(=O)CSc2nnc(-c3ccc(S(=O)(=O)N4CCCC4)cc3)o2)c1	11%
Cc1cc(Cl)c(S(=O)(=O)N2CCCCCC2)cc1OCC(N)=O	29%
CCOC(=O)N1CCC(N2Cc3cccc(C(=O)O)c3C2=O)CC1	5%
C=C(C)n1c(=O)[nH]c2ccccc21	-2%
CCCCCC(=O)N(O)C1CC(=O)N(c2ccccc2)C1=O (centres undefined)	-2%
C/C=C1/C(=O)C[C@H]2[C@@H]3CCC4=CC(=O)CC[C@]4(C)[C@H]3CC[C@]12C	56%
CCOC(=O)C1CCCN(C(=O)Cn2ncc3c(=O)oc4ccc(C)cc4c32)C1 (centres undefined)	-6%
CSc1nsc(SC)c1NC(=O)N1CCCC1	-10%
COc1ccc(C2C(C(=O)N3CC(C)CC(C)C3)c3ccccc3C(=O)N2C)cc1 (centres undefined)	66%
OC[C@@H]1CCC[C@H](n2cnc3c(=S)nc[nH]c32)O1	8%[5.75 µM]
CC1=C(/C=C/C(C)=C/C=C/C(C)=C/CO)C(C)(C)CCC1	73%
NC(=O)c1cnn2c(C(F)(F)F)cc(-c3ccccc3)nc12	11%
CCSc1nnc(NC(=O)CSc2nccn2-c2cccc(C)c2)s1	21%
CCC1CCCCN1CCCNC(=O)C1CCN(S(=O)(=O)N2CCCCC2)CC1 (centres undefined)	-8%
CN(C)c1ncc2nc(-c3ccc(F)cc3)c(=O)n(CCC#N)c2n1	2%
O=C(c1cn(-c2ccccc2)nc1-c1cccs1)N1CCN(c2ccccn2)CC1	111%
Cc1cc2c(c(N3CCOCC3)n1)C(=O)OC2	-10%

# Of the compounds above, four have bromine.
SMILES	AmpC inh no det
COc1ccc(-c2nnc(-c3ccc(Br)o3)o2)cc1OC	71%
O=C(Nc1ccc(O)cc1C(=O)O)c1cccc(Br)c1	-18%
COc1ccc(N2CCN(S(=O)(=O)c3ccc(Br)s3)CC2)cc1	-14%
O=C(O)CCc1ccc(-c2ccc(Br)cc2)o1	6%

# (further entries)
SMILES	AmpC inh no det
Cc1ccc(-c2nc(-c3cccnc3)no2)cc1	16%
O=C(Nc1cccc(NC(=O)N2CCN(c3ccccc3)CC2)c1)N1CCN(c2ccccc2)CC1	25%
CCc1ccc(C(=O)CSc2ncn[nH]2)cc1	-4%
CC(C)N1C(=O)CCC1C(=O)NCc1ccccc1Cl (centres undefined)	-10%
CCOC(=O)N1CCC(C(=O)Nc2ccc(OCC)cc2)CC1	-1%
O=C(c1ccc(F)cc1)C1CCN(C(=O)NCc2ccccc2)CC1	6%
CC(=O)NCCNc1ccnc(-c2ccccc2C)n1	10%
CC(C)C(=O)Nc1nnc(SCC(=O)NCc2cccs2)s1	-9%
CCOC(=O)c1cc(NC(=O)c2cccnc2)cc(C(=O)OCC)c1	29%
COc1ccc(C(=O)NCC(C)CN(C)C)cc1 (centres undefined)	-10%
CCn1c(C)nc2cc(S(=O)(=O)N3CCCC3)ccc21	-3%
O=C(CN(c1ccccc1F)S(=O)(=O)c1ccccc1)N1CCCCCC1	42%
Cc1cccc(C)c1N(CC(=O)Nc1cccc(N(C)S(C)(=O)=O)c1)S(C)(=O)=O	18%
O=C(O)c1ccc(-n2c(-c3ccccc3)n[nH]c2=S)cc1	8%
CCCC(c1nnnn1C1CCCC1)N1CCN(c2ccccc2F)CC1 (centres undefined)	34%
COc1ccc(C2(C(=O)NCCCN(C)C)CCOCC2)cc1	-1%
Cc1ccc(S(=O)(=O)NC(=O)COc2ccccc2C(N)=O)cc1	2%
COc1ccc(-n2c(=O)c(-c3ccccc3)nc3cnc(N4CCOCC4)nc32)cc1	6%
Cc1ccccc1-c1nc(N(C)C)c2ccccc2n1	9%
Cc1ccc(NC(=O)C2CCCN(S(=O)(=O)c3c(C)noc3C)C2)nc1 (centres undefined)	8%
Cc1cc(NC(=O)Cn2c(=O)n(Cc3ccccc3)c(=O)c3ccccc32)no1	10µM*
Cc1ccccc1NC(=O)c1c(O)c2cccc3c2n(c1=O)CCC3	-1%
COc1ccc(Br)cc1CNC(=O)CCc1nc(-c2ccccc2F)no1	21%
O=C(CCCCCN1C(=O)CCC1=O)Nc1ccc2c(c1)OCCO2	4%
COc1ccc(-c2nnc3sc(-c4cccs4)nn23)cc1OC	59%
COC(=O)c1ccccc1NS(=O)(=O)c1ccc(F)cc1	-4%
Cc1cnc(CNc2ncnc3ccc(-c4ccc(C(=O)N(C)C)cc4)cc23)cn1	23%
CCSc1cc(C2C(C(=O)OC)=C(C)NC3=C2C(=O)CCC3)c(C)o1 (centres undefined)	16%
O=c1ccc2cc3ccoc3cc2o1	3%
COc1cc(S(=O)(=O)N2CCN(c3ccccc3)CC2)ccc1Cl	4%
CCCOc1ccc2ccccc2c1/C=N/n1cnnc1	57%
Cc1cc(C)c2cc(CN(CCO)Cc3nnnn3Cc3ccc(F)cc3)c(=O)[nH]c2c1	96%
Cn1c(=O)c2c(nc(SCC(=O)NCc3ccco3)n2C)n(C)c1=O	4%
O=C(O)c1cccc(NS(=O)(=O)c2ccc3nnn(O)c3c2)c1	-3%
CC(C)(C)c1ccc(-c2nc(C#N)c(NCc3ccncc3)o2)cc1	113%
Cc1ccccc1NC(=O)c1ccccc1O	-9%
CCCCc1ccc(NC(=O)N[C@H](C(=O)O)C(C)C)cc1	-11%
CN(C)Cc1ccccc1-c1nc(N2CCOCC2)c2ccccc2n1	26%
Cn1c(=O)n(CC(=O)NCc2cccnc2)c2ccccc21	-6%
COc1ccc(C(=O)NC(=O)N2CCCCC2)cc1	4%
CCc1ccccc1NC(=O)c1nnn(CC(=O)Nc2cccc(C)c2C)c1N	-18%
Cc1cc(NC(=O)COC(=O)c2cccc(S(=O)(=O)N3CCOCC3)c2)no1	0%
Cc1ccc2cccc(S(=O)(=O)Nc3ccc4c(c3)OCO4)c2n1	24%
CC1(C)CC(=O)C2=C(C1)OC(=O)C2(NC(=O)c1cccs1)C(F)(F)F (centres undefined)	-12%
CN(CC(=O)Nc1ccc(C#N)cc1)Cc1ccc(Cl)cc1	4%
Cn1c(=O)c(NC(=O)c2ccccc2)c2n(c1=S)CCCCC2	-12%
CSc1ccc(C(=O)c2[nH]c(=O)[nH]c2C)cc1	-6%
CCCc1nc(N)c(C#N)c(-c2cccnc2)c1CC	13%
O=C(Nc1ccc(S(=O)(=O)N2CCCCC2)cc1)c1ccncc1	11%
C/C=C/CSc1nc2c(c(=O)[nH]c(=O)n2C)n1C(C)C	-4%
COC(=O)C1=CO[C@@H](C)[C@H]2CN3CCc4c([nH]c5ccccc45)[C@@H]3C[C@H]12	50%&22%[12.8 µM]
CC1CCCC(C)N1CCCNC(=O)Cn1cc2c(n1)CCCC2 (centres undefined)	15%
CC(=O)NCCNc1nc(-c2c(C)noc2C)nc2ccccc12	4%
COc1ccc2[nH]cc(C(=O)N3CCCCC3)c(=O)c2c1	-2%
C[C@@]1(C(NC(=O)c2cccs2)c2ccc(-c3ccccc3)cc2)C[C@H]1C1CCCCC1 (some centres undefined)	-12%
CSc1n[nH]c(NCc2ccccc2)n1	-10%
Cc1nc2ccccn2c1C(=O)NCCCN1CCOCC1	4%

# A different layout for some results above:
> CC(=O)NCCNc1nc(-c2c(C)noc2C)nc2ccccc12
- AmpC inh no det: 4%
> COc1ccc2[nH]cc(C(=O)N3CCCCC3)c(=O)c2c1
- AmpC inh no det: -2%
> C[C@@]1(C(NC(=O)c2cccs2)c2ccc(-c3ccccc3)cc2)C[C@H]1C1CCCCC1 (some centres undefined)
- AmpC inh no det: -12%
> CSc1n[nH]c(NCc2ccccc2)n1
- AmpC inh no det: -10%

# Only part of the results is shown; rates above refer to the full screens.
